Menin MLL FP FL = qHTS Assay for Inhibitors Targeting the Menin-MLL Interaction in MLL Related Leukemias: Competition With Fluorescein Labeled MLL-derived Peptide. 290,000 tested, under 10 active. Fluorescence polarization, fluorescein-MLL peptide displacement from menin. FP activity change, % at 61.4 µM; inconclusive = falling polarisation curve, or a change in total fluorescence; inactive = total fluorescence flat and polarisation flat or rising; no compound was filed as active; the % refers to the polarisation; negative = inhibition;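 further: % of control where 0% means no effect; inhibitors lower the polarisation; unlabelled MLL peptide was the positive control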
ClpP mod = qHTS Assay for Activators of ClpP | 340,000 tested, 1.9% active | ATP-dependent Clp protease proteolytic subunit (Bacillus subtilis (strain 168)), P80244 | purified B. subtilis ClpP, FRET peptide cleavage, 20 min | Potency, µM (series often up to 57.5 µM), for the others: at the highest dose activity change, negative = active; active = well fitted falling curve with a large enough effect; inconclusive = small, poorly fitted or top-dose-only effect; inactive = no such curve, though single readings can be large or run the other way; further: potency means the concentration at half of the fitted maximal effect; the source files actives as falling curves though it sought activators and does not explain the sign; nearly all actives have a fitted effect of over 65% in size; many hits overshoot -100%
Target sequence (P80244 whole entry, looked up): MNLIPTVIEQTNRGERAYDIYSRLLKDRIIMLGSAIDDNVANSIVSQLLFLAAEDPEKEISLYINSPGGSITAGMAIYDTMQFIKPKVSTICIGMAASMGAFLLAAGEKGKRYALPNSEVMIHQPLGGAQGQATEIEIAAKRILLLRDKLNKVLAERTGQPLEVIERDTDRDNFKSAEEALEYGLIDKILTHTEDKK
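FRET quenching reversal measured ClpP activation: 10 microg/mL B. subtilis ClpP at pH 8 with the FRET-FV decapeptide, read at 430 nm after 320 nm excitation. The 20-min minus 0-min signal was scaled between DMSO/no-enzyme wells and ADEP (5.8 microM final).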
D2 ag = Beta-Arrestin HTS for Positive Allosteric Modulators of the Human D2 Dopamine Receptor: Agonists. D(2) dopamine receptor (Homo sapiens), P14416. DiscoveRx PathHunter D2 beta-arrestin, luminescence, 90 min; 100% = 57 uM dopamine signal. activation, % (no concentration beside the values). 360,000 tested, 0.084% active; in the data active = activation above about 40%; inconclusive = about 15% to 40%; inactive = below about 15%; further: compound concentration not given in the record; the text of the record calls up to 30% inactive
Target sequence (P14416 whole entry, looked up): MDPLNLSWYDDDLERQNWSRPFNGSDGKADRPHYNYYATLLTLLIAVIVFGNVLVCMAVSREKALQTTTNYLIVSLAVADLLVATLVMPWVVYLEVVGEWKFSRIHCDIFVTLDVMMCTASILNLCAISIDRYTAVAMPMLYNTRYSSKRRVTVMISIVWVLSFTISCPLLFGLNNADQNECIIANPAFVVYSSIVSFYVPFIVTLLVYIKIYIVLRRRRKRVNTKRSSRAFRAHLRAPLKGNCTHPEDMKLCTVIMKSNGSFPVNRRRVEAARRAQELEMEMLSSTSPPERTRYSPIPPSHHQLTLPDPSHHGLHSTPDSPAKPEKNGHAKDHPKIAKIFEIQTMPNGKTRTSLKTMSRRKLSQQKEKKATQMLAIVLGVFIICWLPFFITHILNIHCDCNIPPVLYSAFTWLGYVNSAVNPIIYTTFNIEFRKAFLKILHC
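Agonist mode: compounds alone added to overnight-plated D2 PathHunter cells for 90 min at 37 C, with 57 uM final dopamine (EC100) defining full response. Beta-arrestin recruitment detected by chemiluminescent reagent, read after 1 h at ambient temperature.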
Sfp inh = qHTS Assay for Inhibitors of Bacillus subtilis Sfp phosphopantetheinyl transferase (PPTase). 4'-phosphopantetheinyl transferase ffp (Bacillus subtilis), Q9F4F7. Potency, µM, inactives show max response, negative = inhibition, most hits filed as inhibitors. 310,000 tested, 3.5% active. Biochemical Sfp PPTase activity, qHTS. AID 1490, 2009; active means well fitted inhibition curve with a large enough effect; inconclusive means small, poorly fitted or top-dose-only effect, or another doubt; inactive means no such curve, though single readings can be large or run the other way;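 further: the enzyme is Sfp with the accession as filed and its product quenches rhodamine fluorescence; potency means the concentration at half of the fitted maximal effect; 0% = enzyme reaction without inhibitor and -100% = no enzyme wells; top concentration of the series not given in the record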
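Reaction rates are the 30-min fluorescence difference (ex 525, em 598 nm) in wells containing 15 nM Sfp, 5 uM rhodamine-CoA and 12.5 uM BHQ-2-YbbR at pH 7.6 with 10 mM MgCl2.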
gsp antag = qHTS for Antagonists of gsp, the Etiologic Mutation Responsible for Fibrous Dysplasia/McCune-Albright Syndrome: qHTS; gsp-mutant cells, cAMP HTRF, 30 min; control for the full effect not named in the record; Potency, µM (highest dose often 76.9 µM), without a hit: top-dose activity change, negative = inhibition, usual class: inhibitors; 340,000 tested, 0.4% active; AID 624288, 2012; active = falling curve of any shape with a large fitted effect; inconclusive = falling curve, mostly with a smaller effect; inactive = flat or rising curve; cell line not stated here;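 further: intracellular cAMP measured with PDE inhibitor Ro 20-1724 present during compound exposure; potency means the concentration at half of the fitted maximal effect; on the % scale 0 is the no-effect control and ±100 the full control effect; nearly all actives have a fitted effect of over 65% in size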
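HTRF cAMP read-out (cAMP-d2 plus anti-cAMP antibody-K in lysis buffer, 30 min RT). Before lysis, cells are exposed to compounds with […] for 30 min at 37C in DPBS containing Ca/Mg, BSA and Tween 20.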
gsp agonist = qHTS for Agonist of gsp, the Etiologic Mutation Responsible for Fibrous Dysplasia/McCune-Albright Syndrome: qHTS; AID 624287, 2012; gsp mutant cells, cAMP HTRF, 30 min; control for the full effect not named in the record; Potency, µM (titrated, usually from 76.9 µM), inactives show at the top dose activation (cAMP increase), hits mostly activators; 340,000 tested, 0.13% active; active = well fitted activation curve with a large enough effect; inconclusive = small, poorly fitted or top-dose-only effect, or another doubt; inactive = no such curve, though single readings can be large or run the other way; cell line not stated here;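 further: phosphodiesterase inhibitor Ro 20-1724 added with compounds to block cAMP breakdown; potency means the concentration at half of the fitted maximal effect; nearly all actives have a fitted effect of over 60% in size; about a fifth of the inactives were tested at one dose only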
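Cells stably selected in G418 were plated at 2000/well, grown 16-24 hr, then given compounds in DMSO with the PDE inhibitor […] (300 uM solution added) for 30 min at 37C; cAMP was read by HTRF.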
PINK1 expr mod = A Quantitative High throughput Screen to Identify Chemical Modulators of PINK1 Expression; PINK1 immunofluorescence, high-content cytometry, 24 h; Potency, µM (series often up to 76.6 µM), inactives show at the highest dose activation (PINK1 increase), usual class: activators; 410,000 tested, 0.2% active; AID 624263, 2012; active = well fitted activation curve with a large enough effect; inconclusive = small, poorly fitted or top-dose-only effect; inactive = flat fitted curve, though single readings scatter; cell line not stated here;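 further: potency means the concentration at half of the fitted maximal effect; % of control where 0% means no effect; nearly all actives have a fitted effect of over 65% in size; a mitochondrial uncoupler was the plate control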
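Stable cell line, 250 cells/well, 12 h attachment; compounds pinned at 5 concentrations, 24 h; CCCP control. Fixed with nuclear dye, primary antibodies 12 h at 10 degrees C, secondary plus cell stain; laser-scanning cytometer read.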
The depositor's hits bear a star; ? = inconclusive; . = no result given; [ ] = remark or other dose.

SMILES	Menin MLL FP FL	ClpP mod	D2 ag	Sfp inh	gsp antag	gsp agonist	PINK1 expr mod
O=C(NCC(c1ccco1)N1CCN(c2ccccc2)CC1)C(=O)NC1CC1 (stereo unspecified)	.	-3.6%	13	.	8%	-93%[inhibitor]	-0.2%
O=C(CC(C(=O)NCc1ccccc1)c1nc2ccccc2c(=O)[nH]1)NCc1ccccc1 (stereo unspecified)	0.2	-0.4%	-4.3	-22%	-2%	6%	4.7%
CCC(=O)N1CC(C)C(=O)Nc2ccccc21 (stereo unspecified)	12	-2.2%	-3.1	18%	9%	22%	2.0%
CCCOC(=O)c1cccc(NC(=O)c2cccnc2)c1	0.9	-0.6%	0.8	0%	-25%	1%	-3.4%
COCC(C)n1c(SCC(=O)NC2CCCCC2)nc2ccccc2c1=O (stereo unspecified)	.	0.8%	1.0	.	.	-19%	-0.5%
O=C(CCCC(=O)NNC(=O)Nc1ccccc1)NNC(=O)Nc1ccccc1	0.1	.	0.4	13%	9%	-6%[15.4 µM]	0.1%
CCN(CC(=O)Nc1ccc(NC(C)=O)cc1)C(=O)c1cc2ccccc2oc1=O	.	-8.6%	-1.8	.	6%	24%	-2.0%
CCCOc1ccc(F)cc1-c1cc(C(=O)NCc2cc(OC)cc(OC)c2)[nH]n1	.	-17%	5.7	.	.	.	-1.1%
Cc1ccc(NC(=O)C(C)Sc2n[nH]c(CNc3ccccc3)n2)cc1 (stereo unspecified)	-1.6	.	-0.5	30%[activator]	-3%	28%	3.6%
CCOc1cc(/C=N/N2CCN(Cc3ccccc3)CC2)ccc1O	-7.2	0.8%	4.8	14%	-14%	18%[15.4 µM]	2.5%
CC(Sc1ccccc1)C(=O)NNC(=O)c1csc(N2CCOCC2)n1 (stereo unspecified)	.	-9.6%	2.5	.	10%	-14%[15.4 µM]	-1.7%
COc1ccc(NC2CCCN(C(=O)c3cc4ncccn4n3)C2)cc1 (stereo unspecified)	.	0.6%	4.8	-3%	11%	28%	0.1%
CC12CCC(=O)N1C(C(=O)Nc1cc(C(F)(F)F)ccc1N1CCCCC1)CS2 (stereo unspecified)	.	-3.5%	-0.5	.	-15%	-1%	3.6%
CCn1nc(CC(=O)Nc2nnc(CC(=O)N3CCCC3)s2)c2ccccc2c1=O	1.7	-1.3%	-0.4	16%	9%	-5%	-0.7%
COc1ccc(-n2c(SCC(=O)NCc3cccs3)nnc2-c2ccoc2C)cc1	0.9	1.1%	-5.1	-8%	-9%	-10%[15.4 µM]	-0.4%
CC1CCCCC1NC(=O)CSc1nc2ccccc2c(=O)n1Cc1ccco1 (stereo unspecified)	3.1	0.7%	-0.2	18%	2%	1%	.
CC1CCCC(C)N1C(=O)CSc1ncccn1 (stereo unspecified)	1.8	.	-3.7	11%	6%	33%[15.4 µM]	2.5%
O=C(O)CN1CCc2ccccc2C1	1.0	.	-1.1	-11%	11%	-8%	-2.5%
CC(C)(C)CC(C)(C)N1CNC(=S)NC1	6.6	1.0%	0.7	8%	6%	4%	0.2%
CC(C)c1ccc(NC(=O)C(=O)c2cn(CC(=O)N3CCCCC3)c3ccccc23)cc1	5.7	-2.1%	0.0	6%	?	?	0.0%
COc1cccc(NC(=O)Cc2nnc(SCC(=O)NC3CCCC3)n2C)c1	-7.7	.	1.9	0%	-1%	-12%[15.4 µM]	0.7%
COCc1nnc(NC(=O)CSCc2ccccc2)s1	-0.3	0.0%	-2.5	-26%	-5%	-45%[inhibitor]	1.4%
Clc1ccccc1N1CCN(Cc2ccc(Br)o2)CC1	.	0.1%	0.7	.	-12%	0%[15.4 µM]	?
COc1ccc(CCC(C)NCc2ccc(Cl)c(Cl)c2)cc1 (stereo unspecified)	-10.0	0.8%	-4.6	4%	12%	-24%	7.3%
Cc1cccc(NC(=O)Nc2ccc(Cl)cc2)n1	1.6	0.8%	2.0	?	0%	-2%[15.4 µM]	2.3%
O=C(/C=C/c1c(F)cccc1Cl)Nc1ccc(S(=O)(=O)Nc2ncccn2)cc1	-0.5	0.9%	0.5	13%	-18%	0%[15.4 µM]	-0.2%
Cc1ccc(NC(=O)COC(=O)CCC2CCCC2)c(Br)c1	.	-1.8%	-1.9	.	5%	-19%	0.6%
Cc1ccc(C(=O)OCC(=O)N2CCCC2)cc1	.	.	-1.2	10%	9%	16%	-0.8%
CN1CCN(c2ccc(-c3cc(NC=O)c4ncc(-c5ccccc5)n4c3)cc2)CC1	.	-14%	-1.0	.	.	.	3.0%
CN(CC(=O)Nc1cccc(F)c1)C(=O)CSc1ccccc1F	.	-2.0%	-15	1%	15%	?	-0.4%
COc1cccc(NC(=O)C(Sc2nnc(Nc3ccccc3C)s2)c2ccccc2)c1 (stereo unspecified)	-1.9	-0.2%	-2.7	18%	-22%	-1%	-1.3%
O=C(Nc1cccc2ncccc12)c1ccc(Cl)cc1	-7.3	.	2.7	-3%	-7%	-25%	2.1%
CC1=Nc2ccccc2N=C(N)C1c1ccccc1 (stereo unspecified)	-4.5	-22%	-2.8	0%	-4%	-10%	-2.5%
O=C1CCCN1CCCNS(=O)(=O)c1ccc(Br)cc1	-1.5	.	-2.6	10%	1%	4%[15.4 µM]	0.0%
CCc1ccc(NC(=O)C2C3/C=C\CCCCC32)cc1 (stereo unspecified)	.	-1.4%	-2.8	19%	9%	-9%[15.4 µM]	1.4%
COc1ccc(-c2csc(NC(=S)NC(=O)c3cccs3)n2)cc1OC	5.5	.	1.4	32µM*	-17%	19%	3.3%
O=C(O)C1CCC(Cn2c(SCc3cc(=O)n4ccccc4n3)nc3ccsc3c2=O)CC1 (stereo unspecified)	1.0	.	0.6	15%	-20%	0%[15.4 µM]	1.6%
Cn1c(=O)cc(OCC(=O)NCCCN2CCN(c3cccc(Cl)c3)CC2)c2ccccc21	7.6	-3.9%	7.6	-7%	-4%	?	3.9%
CC(=O)c1ccc(N2CCN(C(=O)CCC(=O)c3cccs3)CC2)cc1	-1.7	-6.8%	3.0	16%	-8%	-22%	-0.4%
Cc1ccc(/C=C/C(=O)OC(C)C(=O)Nc2ncc(Cl)cc2Cl)o1 (stereo unspecified)	4.0	-5.5%	-1.4	?	3%	25%	8.1%
COc1ccc(CCNS(=O)(=O)c2cc3c4c(c2)C(C)C(=O)N4CCC3)cc1OC (stereo unspecified)	.	-2.0%	-3.2	3%	-5%	-11%	-0.5%
Cc1ccc(CNC(=O)C2CC3Cn4c(nc5ccccc54)C3N2C)o1 (stereo unspecified)	.	-3.8%	1.5	.	9%	0%	0.0%
COc1ccc(Sc2nc(-c3ccccc3)ncc2OC)cc1	5.0	.	0.7	17%	2%	?	5.6%
O=C(CNC(=O)c1ccccc1F)NCCN1C(=O)S/C(=C\c2ccccc2Cl)C1=O	.	5.5%	-0.6	13%	-4%	-38%[inhibitor]	1.2%
CCOc1cc(OCC)cc(C(=O)NCc2ccco2)c1	-9.0	14µM*	-3.4	9%	-1%	-21%[15.4 µM]	-1.6%
CN(Cc1cccc(F)c1)C(=O)c1ccc2c(=O)n3c(nc2c1)CCC3	.	-1.9%	-0.1	10%	13%	3%	0.9%
O=c1cc(-c2ccncc2)oc2ccccc12	4.3	-1.3%	-1.7	1%	9%	8%	-2.7%
CCN(C1=NS(=O)(=O)c2ccccc21)N(CC)S(=O)(=O)c1ccc(C)cc1	-0.6	1.8%	-0.7	20%	-7%	-39%[inhibitor]	1.2%
O=C(NCC(O)c1ccccc1)c1ccc(Cl)c(S(=O)(=O)N2CCCCC2)c1 (stereo unspecified)	-0.4	-0.7%	1.4	4%	-19%	-25%	1.8%
COc1ccc(C(=O)NCCN2CCOCC2)cc1[N+](=O)[O-]	-0.6	1.2%	-1.7	20%	-7%	-12%[15.4 µM]	-1.1%
CCOC(=O)C[n+]1c(C)ccc2c1CCC2	4.0	-0.8%	-8.0	14%	12%	25%	-0.6%
Nc1ncnc2c1ncn2[C@@H]1O[C@H](C(=O)NS(=O)(=O)c2c(Cl)nc3sccn23)[C@@H](O)[C@H]1O	.	-1.8%	-4.7	.	.	.	0.5%
O=C(CCS(=O)(=O)Cc1cccc(Cl)c1)NCCc1ccccc1	-0.5	-1.1%	-2.5	-3%	7%	1%	-0.4%
COC(=O)c1ccc2nc(-c3ccc(Cl)cc3)c(Cc3cccc(F)c3)n2c1	.	?	0.6	.	.	.	4.2%
Brc1ccc(-n2cnc(-c3ccccc3)c2)cc1	0.5	-1.3%	-0.4	15%	-10%	-7%[15.4 µM]	1.4%
CCOC(=O)c1c(NS(C)(=O)=O)sc2c1CCC(C)C2 (stereo unspecified)	3.6	-1.6%	-0.1	-14%	0%	-15%	-2.3%
Cc1ccccc1-n1nc2c(c1NC(=O)c1cccs1)CS(=O)(=O)C2	.	-1.7%	1.1	12%	-2%	27%	0.7%
Cc1ccc(Cl)cc1NC(=O)C(=O)N1CCCCC1	-6.6	0.0%	5.0	4%	0%	-7%	-1.8%
N#CCCn1cc(/C=N/NC(N)=S)c(-c2ccc(-c3ccccc3)cc2)n1	0.0	-12%	-7.0	7%	-15%	4%	1.5%
COc1ccc(C(=O)NCCCCCC(=O)O)cc1OC	3.4	-2.4%	-1.9	7%	8%	-17%	-0.6%
CC(C)(C)CC(=O)NCCCN1CCOCC1	-8.6	.	-0.1	17%	5%	-25%	0.6%

No enrichment for hits; any-hit rate near 5.1%.
